HUVEC inhibit – human endothelial cell proliferation inhibition; AID 648; HUVEC proliferation, CellTiter-Glo luminescence, 72 h; active compounds read low; actives 1.1% (n = 86,000); viability, % at 10 µM (by protocol);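 active means viability at or below 30%; inactive means viability above 30%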;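 further: 100% = median luminescence of DMSO-only cell control wells on each plate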
Fibroblast inh – blocks proliferation of human lung fibroblasts | viability, % at 10 µM | AID 719 | LL 47 human lung fibroblast viability, ATP luminescence; active compounds read low | actives 1.1% (n = 85,000);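 active means viability at or below 50% in the single dose screen; inactive means viability above 50%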;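 further: compound exposure lasted 72 h before the ATP readout; 100% = median luminescence of untreated cell-only wells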
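Benchmarks: Cell-only wells, no compound | Test system: LL 47 human lung fibroblasts, passage 12 or lower | Input: 1,150 cells/well | Measured by: CellTiter-Glo luminescence measuring cellular ATP | Medium: IMEM, 15% FBS supplement | Schedule: Overnight attachment after seeding, then 72 h compound exposure at 37 °C | Doses: Compound addition at 0.1% DMSO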
S1P2 blocker – antagonists of human S1P2 receptor | AID 736 | inhibition, % at 5 µM | actives 0.21% (n = 97,000) | O95136 | cell-based S1P2 antagonist assay, inhibition at 5 uM; in the data active means inhibition above about 45%;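 further: CRE beta-lactamase reporter cells expressing human S1P2 stimulated with S1P; 0% = agonist at EC80 alone and 100% = agonist plus reference antagonist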
Target sequence (O95136 whole entry, looked up): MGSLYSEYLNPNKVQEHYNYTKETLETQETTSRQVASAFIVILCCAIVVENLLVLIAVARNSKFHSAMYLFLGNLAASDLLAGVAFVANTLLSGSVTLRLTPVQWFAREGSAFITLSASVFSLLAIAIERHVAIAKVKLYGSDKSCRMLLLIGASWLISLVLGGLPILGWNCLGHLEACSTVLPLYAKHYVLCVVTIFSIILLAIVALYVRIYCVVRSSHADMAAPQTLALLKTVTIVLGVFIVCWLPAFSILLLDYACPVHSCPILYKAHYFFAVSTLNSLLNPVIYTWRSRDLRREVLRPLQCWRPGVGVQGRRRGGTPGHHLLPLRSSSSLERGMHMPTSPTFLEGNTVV
PostGolgi yeast – growth inhibition of a yeast mutant, post-Golgi transport screen; post-Golgi transport phenotypic cell assay; inhibition, % at 10 µM; actives 0.9% (n = 98,000);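 further: yeast cells grown in 1536-well plates; yeast grown about 18 h at 30C before absorbance read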
S1P2 agonist – S1P2 (human) receptor agonism; O95136; AID 729; actives 0.46% (n = 97,000); S1P2-expressing cell line, agonist reporter read-out; activation, % at 4.5 µM; in the data active means activation above about 16%;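 further: 0% = vehicle low control and 100% = maximal reference agonist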
PostGolgi ctrl – inhibits growth of the yeast control strain | efflux-deficient yeast background strain, growth absorbance A615, 16 h | inhibition, % at 10 µM | actives 5% (n = 98,000)
Starred values were filed as active, the others as inactive; . = not tested or not shown. Unless noted, no stated cut-off is given here; in the data, active means inhibition above about 30%; inactive means the rest.

1) Cc1ccnc(NS(=O)(=O)c2ccc(N)cc2)n1
2) CN1CCN2c3ccccc3Cc3ccccc3C2C1 (configuration not stated)
3) CCN(CC)CCOC(=O)C1(C2CCCCC2)CCCCC1
4) Clc1ccc2c(c1)C(N1CCNCC1)=Nc1ccccc1O2
5) CC(=O)OCC(=O)[C@@]12OC(C)(C)O[C@@H]1C[C@H]1[C@@H]3C[C@H](F)C4=CC(=O)C=C[C@]4(C)[C@@]3(F)[C@@H](O)C[C@@]12C

compound no.,1,2,3,4,5
S1P2 agonist,-6,.,.,.,.
PostGolgi yeast,-1,.,.,.,.
HUVEC inhibit,101,73,90,90,101
Fibroblast inh,98,97,93,86,92
PostGolgi ctrl,19,.,.,.,.
S1P2 blocker,-2,.,.,.,.

Compound profiles, from the list above. Order of screens: S1P2 agonist, PostGolgi yeast, HUVEC inhibit, Fibroblast inh, PostGolgi ctrl, S1P2 blocker
Listed for `Cc1ccnc(NS(=O)(=O)c2ccc(N)cc2)n1` → -6, -1, 101, 98, 19, -2
Listed for `CCN(CC)CCOC(=O)C1(C2CCCCC2)CCCCC1` → ., ., 90, 93, ., .

Compounds above that contain a halogen:
4) Clc1ccc2c(c1)C(N1CCNCC1)=Nc1ccccc1O2
5) CC(=O)OCC(=O)[C@@]12OC(C)(C)O[C@@H]1C[C@H]1[C@@H]3C[C@H](F)C4=CC(=O)C=C[C@]4(C)[C@@]3(F)[C@@H](O)C[C@@]12C

compound no.,4,5
S1P2 agonist,.,.
PostGolgi yeast,.,.
HUVEC inhibit,90,101
Fibroblast inh,86,92
PostGolgi ctrl,.,.
S1P2 blocker,.,.

Remaining list, next part:
6) CC(=O)OCC(=O)[C@@]1(O)CC[C@H]2[C@@H]3CCC4=CC(=O)CC[C@]4(C)[C@H]3C(=O)C[C@@]21C
7) CCc1cccc2c3c([nH]c12)C(CC)(CC(=O)O)OCC3 (configuration not stated)
8) CCC(CO)NCCNC(CC)CO (configuration not stated)
9) CCNC(=O)C1CC(=O)N(CC)C(=Nc2cc(Cl)c(O)c(Cl)c2)S1 (configuration not stated)
10) COc1cc(Cc2cnc(N)nc2N)cc(OC)c1OC

compound no.,6,7,8,9,10
S1P2 agonist,.,.,-8,-3,-5
PostGolgi yeast,.,.,-3,-2,-3
HUVEC inhibit,105,97,97,103,98
Fibroblast inh,97,100,101,103,96
PostGolgi ctrl,.,.,-5,4,1
S1P2 blocker,.,.,-4,4,16

Ordered by the number under PostGolgi ctrl (descending): three of the compounds above.
nr	mol	PostGolgi ctrl
9	CCNC(=O)C1CC(=O)N(CC)C(=Nc2cc(Cl)c(O)c(Cl)c2)S1 (configuration not stated)	4
10	COc1cc(Cc2cnc(N)nc2N)cc(OC)c1OC	1
8	CCC(CO)NCCNC(CC)CO (configuration not stated)	-5

(continued)
11) OC(CCN1CCCC1)(c1ccccc1)C1CCCCC1 (configuration not stated)
12) CN1CCN(C2=Nc3cc(Cl)ccc3Nc3ccccc32)CC1
13) CC(=O)Nc1nnc(S(N)(=O)=O)s1
14) CC(C(=O)O)c1cccc(C(=O)c2ccccc2)c1 (configuration not stated)
15) O=C1c2ccccc2C(=O)N1SC1CCCCC1
16) CC1(C)S[C@@H]2[C@H](NC(=O)Cc3ccccc3)C(=O)N2[C@H]1C(=O)O
17) O=C(O)COCCN1CCN(C(c2ccccc2)c2ccc(Cl)cc2)CC1 (configuration not stated)

compound no.,11,12,13,14,15,16,17
S1P2 agonist,.,.,.,.,-6,.,-7
PostGolgi yeast,.,.,.,4,0,.,2
HUVEC inhibit,88,72,87,98,76,106,95
Fibroblast inh,93,86,101,106,62,105,95
PostGolgi ctrl,.,.,.,5,10,.,-5
S1P2 blocker,.,.,.,.,7,.,-7

Values in list order from the list:
Fibroblast inh, entries 11 to 17 → 93, 86, 101, 106, 62, 105, 95

Screening results (PubChem)

This is a subset, so the mix of outcomes need not match the whole.
